Source: PubChem BioAssay
Six1-Eya2 inh = blocks human Six1 binding to Eya2 | 0.56% of 360,000 active | AlphaScreen GST-Six1/His-Eya2 binding, biochemical; active compounds read low; control for the full effect not named in the record | activity change, % (no concentration beside the values) | Q15475+O00167 | AID 651725; in the data active = activity change below about -65%; inconclusive = about -30% to -65%; inactive = above about -30%; further: on the % scale 0 is the no-effect control and ±100 the full control effect
Target sequence (O00167 whole entry, looked up): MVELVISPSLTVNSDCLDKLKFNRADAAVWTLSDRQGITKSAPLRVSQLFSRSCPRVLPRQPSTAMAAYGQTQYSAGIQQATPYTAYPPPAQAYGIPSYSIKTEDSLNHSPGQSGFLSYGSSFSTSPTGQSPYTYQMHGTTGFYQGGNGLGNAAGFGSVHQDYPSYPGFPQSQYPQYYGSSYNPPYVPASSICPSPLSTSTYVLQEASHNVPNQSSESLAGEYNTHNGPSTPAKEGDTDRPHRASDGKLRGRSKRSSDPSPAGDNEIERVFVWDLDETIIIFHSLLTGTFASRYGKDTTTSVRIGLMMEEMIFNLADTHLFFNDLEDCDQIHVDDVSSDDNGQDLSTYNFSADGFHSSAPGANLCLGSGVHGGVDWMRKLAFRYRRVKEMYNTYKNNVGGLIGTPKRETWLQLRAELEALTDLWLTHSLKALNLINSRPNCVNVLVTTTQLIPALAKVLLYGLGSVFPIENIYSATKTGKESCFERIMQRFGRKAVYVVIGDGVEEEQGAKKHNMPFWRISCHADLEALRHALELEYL
Target sequence (Q15475 whole entry, looked up): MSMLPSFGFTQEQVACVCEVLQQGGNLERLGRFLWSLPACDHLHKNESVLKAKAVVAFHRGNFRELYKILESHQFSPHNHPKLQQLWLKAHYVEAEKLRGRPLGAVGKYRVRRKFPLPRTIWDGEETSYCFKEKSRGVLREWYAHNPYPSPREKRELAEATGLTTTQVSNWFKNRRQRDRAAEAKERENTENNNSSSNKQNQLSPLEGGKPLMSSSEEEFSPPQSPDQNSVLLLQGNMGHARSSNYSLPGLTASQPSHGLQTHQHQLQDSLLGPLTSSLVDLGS
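GST-Six1 + His-Eya2 (5X stock: 250/500 nM); Tris pH 8.0, 300 mM NaCl, 0.05% BSA, 0.02% Tween 20; GSH donor/Ni acceptor beads; 1 h 37 °C dark; AlphaScreen readout.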
PINK1 expr mod = PINK1 expression modulation; PINK1 immunofluorescence, high-content cytometry, 24 h; Potency, µM (doses to about 76.6 µM), without a hit: at the highest dose activation (PINK1 increase), most hits filed as activators; AID 624263; 0.2% of 410,000 active; active = well fitted activation curve with a large enough effect; inconclusive = small, poorly fitted or top-dose-only effect; inactive = flat fitted curve, though single readings scatter; cell line not stated here;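 further: potency means the concentration at half of the fitted maximal effect; % of control where 0% means no effect; nearly all actives have a fitted effect of over 65% in size; a mitochondrial uncoupler was the plate control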
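Cells are seeded, rested 12 hours, then given compound at five concentrations or DMSO for 24 hours. After fixation, blocking and antibody staining, PINK1 amount and mitochondrial localization are scored; CCCP serves as control.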
TRPV1 potentiator = enhances activation of the human vanilloid receptor TRPV1; TRPV1-expressing cells, Fluo-8 calcium influx, capsaicin EC20 potentiation; host cell line not named in the record; control for the full effect not named in the record; 0.02% of 320,000 active; potentiation, % at 8.33 µM; active means potentiation above 80%; inconclusive means 30% to 80%; inactive means below 30%; further: 0% is about no effect
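TRPV1-expressing cells were cultured overnight at 35.5C and loaded with Fluo-8 calcium dye for 40 to 90 min at room temperature. After a 10 s baseline, compound was added and calcium influx was read kinetically for 3 min (ex 480/em 520 nm).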
CtBP-E1A blk = CtBP/E1A binding inhibition. 0.49% of 340,000 active. activity change, % (test concentration not listed). AlphaScreen GST-E1A/His-CtBP binding, 1536-well; active compounds read low; control for the full effect not named in the record; in the data active means activity change below about -65%; inconclusive means about -30% to -65%; inactive means above about -30%; further: on the % scale 0 is the no-effect control and ±100 the full control effect
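Homogeneous bead-based format: GST-tagged E1A captured on glutathione donor beads, His-tagged CtBP on nickel acceptor beads; compounds precede bead addition by 2 h at 37 °C.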
D2 potentiator = positive allosteric modulators of human D2 dopamine receptor | AID 624464 | P14416 | DiscoveRx D2 beta-arrestin cells, luminescence, 90 min; 100% = 57 uM dopamine signal | 0.23% of 360,000 active | potentiation, % (concentration not given with the values); active = potentiation of 50% or more; inconclusive = 30% to 50%; inactive = 30% or less;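 further: compound concentration not given in the record; tested on top of an EC20 dose of dopamine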
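D2 cells co-treated with compound plus 50 nM dopamine (EC20) for 90 min at 37 deg C to detect potentiation. Beta-arrestin recruitment was read as enzyme-fragment luminescence after 1 h at ambient temperature. Full response was set by 57 uM dopamine.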
Sfp PPTase inh = Sfp phosphopantetheinyl transferase inhibition; Q9F4F7; 3.5% of 310,000 active; Potency, µM, for inactives: max response, negative = inhibition, usual class: inhibitors; Biochemical Sfp PPTase activity, qHTS; active means well fitted inhibition curve with a large enough effect; inconclusive means small, poorly fitted or top-dose-only effect, or another doubt; inactive means no such curve, though single readings can be large or run the other way;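 further: the enzyme is Sfp with the accession as filed and its product quenches rhodamine fluorescence; potency means the concentration at half of the fitted maximal effect; 0% = enzyme reaction without inhibitor and -100% = no enzyme wells; top concentration of the series not given in the record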
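Sfp 15 nM + cpd, 15 min RT; start w/ rhodamine-CoA 5 uM, BHQ-2-YbbR 12.5 uM (final); 50 mM Hepes pH 7.6, 10 mM MgCl2, 0.01% NP-40, 0.01% BSA; read 525/598 nm at 0 and 30 min.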
D2 ag = human D2 receptor agonism in beta-arrestin assay. DiscoveRx PathHunter D2 beta-arrestin, luminescence, 90 min; 100% = 57 uM dopamine signal. activation, % (test concentration not listed). 0.084% of 360,000 active. AID 624465; in the data active = activation above about 40%; inconclusive = about 15% to 40%; inactive = below about 15%; further: compound concentration not given in the record; the text of the record calls up to 30% inactive
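DiscoveRx PathHunter D2 beta-arrestin cells (2,100/well) attached overnight, then compound-stimulated 90 min at 37 C in HBSS/10 mM HEPES/0.1% Tween-20 buffer; beta-galactosidase complementation read by luminescence after 1 h at ambient temperature. Dopamine 57 uM final (EC100) as control.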
Numbers without * were called inactive; & = joins results of further samples; [ ] = another dose, or the depositor's remark.

What do the screens show for `N#CC1=C2SCN(c3ccccc3)CN2C(=O)CC1c1c(Cl)cccc1Cl` (stereo not given)?
Six1-Eya2 inh: 1; PINK1 expr mod: -0.3%&0.2%; CtBP-E1A blk: -7; D2 potentiator: -12; Sfp PPTase inh: 5µM*; D2 ag: -3.5

How did COc1ccc(/C=C/C(=O)NC(=S)NN2CCCCC2c2cccnc2)cc1OC (stereo not given) do in these assays?
Six1-Eya2 inh: -8; PINK1 expr mod: 1.6%; TRPV1 potentiator: 0; CtBP-E1A blk: -3; D2 potentiator: -8; Sfp PPTase inh: -29%; D2 ag: -1.6

How did COc1cccc2c1C(CO)N1C(C#N)C3CC(C(=O)O)C(C1C2)N3C (stereo not given) do in these assays?
Six1-Eya2 inh: -22; PINK1 expr mod: 1.2%; TRPV1 potentiator: 2; CtBP-E1A blk: -1; D2 potentiator: -34; Sfp PPTase inh: 21%; D2 ag: -11

How did Cc1nc(-n2nnc3cc(C)c(C)cc32)c2c3c(sc2n1)CCCC3 do in these assays?
Six1-Eya2 inh: 6; PINK1 expr mod: 1.2%; TRPV1 potentiator: -10; CtBP-E1A blk: 10; D2 potentiator: -8; Sfp PPTase inh: -1%; D2 ag: 1.6

What do the screens show for `N#Cc1ccc(-c2ccc3nccn3c2)cc1`?
Six1-Eya2 inh: 5; PINK1 expr mod: -0.3%; CtBP-E1A blk: inconclusive; D2 potentiator: -5; D2 ag: 1.9

Results for Cc1ccccc1OCCNc1cc(N2CCN(CCO)CC2)ccc1[N+](=O)[O-] ?
Six1-Eya2 inh: -25; PINK1 expr mod: -0.9%; TRPV1 potentiator: -21; CtBP-E1A blk: -29; D2 potentiator: -44; Sfp PPTase inh: -26%; D2 ag: -3.3

How did Cc1ccc(S(=O)(=O)N2[C@@H](c3ccccc3F)C(C(=O)O)=CC[C@H]2c2cccs2)cc1 do in these assays?
Six1-Eya2 inh: 3; PINK1 expr mod: -0.3%; TRPV1 potentiator: -12; D2 potentiator: 0; D2 ag: -2.1

How did CCCCN(C=O)c1c(CC)nc2c(OCc3ccccc3C(=O)OC)cccn12 do in these assays?
Six1-Eya2 inh: -11; PINK1 expr mod: 1.6%; CtBP-E1A blk: -1; D2 potentiator: -1; D2 ag: 4.6

Results for COc1ccc(NC(=O)O/N=C/c2ccccc2)cc1 ?
Six1-Eya2 inh: 3; PINK1 expr mod: 2.5%; TRPV1 potentiator: 13; D2 potentiator: -6; Sfp PPTase inh: 0%; D2 ag: 3.3

Results for NC(=O)OCC(COC(N)=O)c1ccccc1 ?
Six1-Eya2 inh: 9&-2; PINK1 expr mod: 1.7%&-0.1%; TRPV1 potentiator: 16; CtBP-E1A blk: -21&3; D2 potentiator: -8&0; Sfp PPTase inh: -4%&15%&7%; D2 ag: -6.8&-6.3

Next part; the last 3 above are carried over.
How did CCCCN(C=O)c1c(CC)nc2c(OCc3ccccc3C(=O)OC)cccn12 do in these assays?
Six1-Eya2 inh: -11; PINK1 expr mod: 1.6%; CtBP-E1A blk: -1; D2 potentiator: -1; D2 ag: 4.6

Results for COc1ccc(NC(=O)O/N=C/c2ccccc2)cc1 ?
Six1-Eya2 inh: 3; PINK1 expr mod: 2.5%; TRPV1 potentiator: 13; D2 potentiator: -6; Sfp PPTase inh: 0%; D2 ag: 3.3

Results for NC(=O)OCC(COC(N)=O)c1ccccc1 ?
Six1-Eya2 inh: 9&-2; PINK1 expr mod: 1.7%&-0.1%; TRPV1 potentiator: 16; CtBP-E1A blk: -21&3; D2 potentiator: -8&0; Sfp PPTase inh: -4%&15%&7%; D2 ag: -6.8&-6.3

What do the screens show for `CC(C)c1nnc(SCc2ccc(CSc3nnc(C(C)C)n3N)cc2)n1N`?
Six1-Eya2 inh: -4; PINK1 expr mod: 0.3%; TRPV1 potentiator: 1; CtBP-E1A blk: 0; D2 potentiator: -9; Sfp PPTase inh: 5%; D2 ag: -3.8

How did CC1CCCCC1NC(=O)C1Cc2ccccc2CN1S(C)(=O)=O (stereo not given) do in these assays?
Six1-Eya2 inh: 13; PINK1 expr mod: 3.6%; TRPV1 potentiator: -2; CtBP-E1A blk: -4; D2 potentiator: -2; Sfp PPTase inh: 10%; D2 ag: -2.2

How did COc1cccc(-c2cnc(C(O)c3ccc(C)cc3C)[nH]2)c1 (stereo not given) do in these assays?
Six1-Eya2 inh: -16; PINK1 expr mod: 2.4%; CtBP-E1A blk: -4; D2 potentiator: -13; D2 ag: -2.8

What do the screens show for `O=C(c1ccncc1)N(Cc1cc2ccccc2[nH]c1=O)C1CCCCC1`?
Six1-Eya2 inh: -1; PINK1 expr mod: -7.0%[38.3 µM]; TRPV1 potentiator: -1; CtBP-E1A blk: 8; D2 potentiator: -9; Sfp PPTase inh: 12%; D2 ag: -2.2

How did CC(OC(=O)c1snc(C(=O)NC2CCCCC2)c1N)C(=O)NC1CCCCC1 (stereo not given) do in these assays?
Six1-Eya2 inh: -6; PINK1 expr mod: 24%; TRPV1 potentiator: 3; CtBP-E1A blk: -7; D2 potentiator: -5; Sfp PPTase inh: 17%; D2 ag: -1.5

What do the screens show for `COC(=O)N1c2ccccc2CCc2ccccc21`?
Six1-Eya2 inh: -2; PINK1 expr mod: 6.4%; TRPV1 potentiator: 6; CtBP-E1A blk: 5; D2 potentiator: -7; Sfp PPTase inh: 4%; D2 ag: -2.4

What do the screens show for `CC(C)Nc1nnc(SCC(=O)Nc2ccc(F)cc2)s1`?
Six1-Eya2 inh: 11; TRPV1 potentiator: 13; CtBP-E1A blk: 10; D2 potentiator: 3; Sfp PPTase inh: -12%; D2 ag: -2.3

What do the screens show for `NC(=O)c1sc2nc3c(c(-c4ccccc4)c2c1N)CCC3`?
Six1-Eya2 inh: -21; PINK1 expr mod: -3.6%; TRPV1 potentiator: 0; CtBP-E1A blk: -17; D2 potentiator: -11; Sfp PPTase inh: -15%; D2 ag: -4.7

Results for CC1CCN(C(=O)CSc2nnc(CNC(=O)c3c(F)cccc3F)o2)CC1 ?
Six1-Eya2 inh: -1; PINK1 expr mod: 3.6%; TRPV1 potentiator: inconclusive; CtBP-E1A blk: 2; D2 potentiator: 5; Sfp PPTase inh: 8%; D2 ag: -3.4

What do the screens show for `Cc1cc(CNC(=S)Nc2cccc(Cl)c2Cl)nn1C`?
Six1-Eya2 inh: 2; PINK1 expr mod: -0.2%; TRPV1 potentiator: -1; CtBP-E1A blk: -19; D2 potentiator: -7; Sfp PPTase inh: 13%; D2 ag: -18

Results for O=C(NC(=S)Nc1ccc2[nH]c(=O)[nH]c2c1)c1cccc(F)c1 ?
Six1-Eya2 inh: 8; PINK1 expr mod: 8.3%; TRPV1 potentiator: 2; CtBP-E1A blk: 0; D2 potentiator: -5; Sfp PPTase inh: 5%; D2 ag: -6.0

What do the screens show for `O=C(OC1CCCC1)c1ccc(Cl)cc1Cl`?
Six1-Eya2 inh: 0; PINK1 expr mod: 6.8%; CtBP-E1A blk: 0; D2 potentiator: 0; D2 ag: 3.9

How did COC(=O)c1cn(NC(=O)Cc2c(F)cccc2Cl)c(=O)c2ccccc12 do in these assays?
Six1-Eya2 inh: -1; PINK1 expr mod: -1.9%; TRPV1 potentiator: 3; CtBP-E1A blk: 4; D2 potentiator: -5; Sfp PPTase inh: 21%; D2 ag: 1.2

What do the screens show for `COc1cc(F)ccc1-c1cc(C(=O)Nc2ccc(C)c(NS(C)(=O)=O)c2)[nH]n1`?
Six1-Eya2 inh: -13; PINK1 expr mod: 12%; CtBP-E1A blk: -5; D2 potentiator: -16; D2 ag: 6.0

What do the screens show for `CC(C)NC(=O)N(C)C[C@@H]1Oc2cc(Br)ccc2S(=O)(=O)N([C@@H](C)CO)C[C@H]1C`?
Six1-Eya2 inh: 3; PINK1 expr mod: -0.5%; CtBP-E1A blk: 5; D2 potentiator: 1; D2 ag: -2.8

Results for O=C(NCc1ccccc1Cl)c1cnccn1 ?
Six1-Eya2 inh: -1; PINK1 expr mod: -0.5%; TRPV1 potentiator: -2; CtBP-E1A blk: -4; D2 potentiator: -7; Sfp PPTase inh: 2%; D2 ag: -5.2

Results for COc1ccc(Oc2c(C=O)c3ccccc3n2C)cc1 ?
Six1-Eya2 inh: 4; PINK1 expr mod: -1.4%; TRPV1 potentiator: -2; CtBP-E1A blk: 24; D2 potentiator: -10; Sfp PPTase inh: 2%; D2 ag: -2.3

What do the screens show for `CCN1CCN(C(=O)CCc2nnc(CCc3ccc(OC)cc3)o2)[C@@H](C)C1=O`?
Six1-Eya2 inh: 0; PINK1 expr mod: -1.0%; TRPV1 potentiator: -1; CtBP-E1A blk: -7; D2 potentiator: -4; Sfp PPTase inh: 7%; D2 ag: -1.5

What do the screens show for `CCOC(=O)c1ccc(NC(=S)N2CCC(C(N)=O)CC2)cc1`?
Six1-Eya2 inh: 14; PINK1 expr mod: -2.7%; TRPV1 potentiator: 2; CtBP-E1A blk: -9; D2 potentiator: 3; Sfp PPTase inh: 9%; D2 ag: -2.6

What do the screens show for `COc1ccc(N2CCN(C(=O)COC(=O)c3cc(S(=O)(=O)N(C)C)ccc3N3CCCC3)CC2)cc1`?
Six1-Eya2 inh: -3; PINK1 expr mod: 3.7%; TRPV1 potentiator: -2; CtBP-E1A blk: 10; D2 potentiator: -20; D2 ag: -1.4

How did CN1CCN(S(=O)(=O)c2cccc(C(=O)N3CCN(c4ccccc4)CC3)c2)CC1 do in these assays?
Six1-Eya2 inh: 0; PINK1 expr mod: 0.6%; CtBP-E1A blk: 1; D2 potentiator: -3; D2 ag: -2.9

Results for Cc1cc(Cl)ccc1NC(=O)COC(=O)c1c(C)noc1C ?
Six1-Eya2 inh: -1; PINK1 expr mod: 6.1%; TRPV1 potentiator: -10; D2 potentiator: -7; D2 ag: -2.7

How did O=C(c1cccc(F)c1F)N1CCCc2ccccc21 do in these assays?
Six1-Eya2 inh: -15; PINK1 expr mod: 0.9%; TRPV1 potentiator: -21; CtBP-E1A blk: 7; D2 potentiator: -11; Sfp PPTase inh: 12%; D2 ag: 0.4

What do the screens show for `Cn1c(=O)c2ncn(CC(=O)NCCC3=CCCCC3)c2n(C)c1=O`?
Six1-Eya2 inh: -2; PINK1 expr mod: -2.6%; TRPV1 potentiator: inconclusive; CtBP-E1A blk: 4; D2 potentiator: -4; Sfp PPTase inh: 14%; D2 ag: -3.1

Rows were taken by chance (roughly 3.7% active in at least one column).
